High-throughput results from PubChem BioAssay.
RE007 growth inh = less growth of the S. pombe RE007 Vpr strain. S. pombe RE007 Vpr strain, BacTiter-Glo ATP luminescence, 24 h; control for the full effect not named in the record. Potency, µM (highest dose often 92.2 µM), inactives show at the top dose activity change, negative = less growth. actives 0.21% (n = 360,000); active = well fitted falling curve with a large enough effect; inconclusive = small, poorly fitted or top-dose-only effect; inactive = no such curve, though single readings can be large or run the other way;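 also: % is scaled to controls: 0 for no effect and ±100 for the full control effect; nearly all actives have a fitted effect of over 50% in size; the assay follows cell death caused by Vpr and the record does not say whether a fall means rescue or toxicity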
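Fission yeast RE007 carrying one integrated HIV-1 vpr copy, seeded at OD 0.01 in PMG+AL medium with 23 nL pinned compound. Grown 24 h at 30 degrees; viability read by BacTiter-Glo luminescence after 5 min.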
NS1 function inh = inhibitors of influenza NS1 protein function | S. cerevisiae slowed by influenza A NS1, growth recovery by OD600 | Potency, µM (top dose mostly 46.1 µM), for inactives: top-dose activity, positive = more growth | actives 0.4% (n = 270,000); active means well fitted rising curve with a large enough effect; inconclusive means small, poorly fitted or top-dose-only effect; inactive means no such curve, though single readings can be large or run the other way; also: nearly all actives have a fitted effect of over 50% in size
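In this qHTS, NS1 from influenza A is expressed in budding yeast, where it slows growth. Cells are switched from glucose to 2% galactose medium (pH 6.0, -URA), treated with compound, and growth recovery is read at OD600.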
Cruzain noTriton = cruzain (T. cruzi) inhibition without detergent. purified cruzain, Z-FR-AMC fluorescence, no detergent. actives 2.3% (n = 200,000). Potency, µM, for inactives: max response, negative = inhibition, actives largely listed as inhibitors;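 also: plate controls were enzyme without inhibitor for no effect and buffer without enzyme for full effect; nearly all actives have a fitted effect of over 40% in size; top concentration of the series not given in the record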
Target sequence (P25779 123-467 limits assumed): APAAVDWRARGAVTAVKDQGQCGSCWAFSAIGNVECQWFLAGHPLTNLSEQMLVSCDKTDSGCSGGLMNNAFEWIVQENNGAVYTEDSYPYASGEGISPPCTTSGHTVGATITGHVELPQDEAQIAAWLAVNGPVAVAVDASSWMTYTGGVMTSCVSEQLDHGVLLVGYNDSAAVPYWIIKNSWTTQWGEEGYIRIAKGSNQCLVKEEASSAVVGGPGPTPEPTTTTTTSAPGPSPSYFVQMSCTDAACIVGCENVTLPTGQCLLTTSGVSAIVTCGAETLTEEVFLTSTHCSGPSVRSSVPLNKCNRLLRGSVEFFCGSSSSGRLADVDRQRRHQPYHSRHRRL
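Purified cruzain at 1.5 nM, pre-incubated 15 min with compound at room temperature in 100 mM sodium acetate pH 5.5, 5 mM DTT, 0.00005% Triton X-100. Reaction started with 2 uM Z-FR-AMC; AMC fluorescence increase over 60 s gives rate.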
MARV entry inh = Marburg virus entry inhibition; Marburg virus pseudotyped entry inhibition, cell reporter; control for the full effect not named in the record; about a third of the inactives were read at about 46 µM; Potency, µM (doses to about 37.8 µM), for inactives: at the highest dose activity change, negative = inhibition, actives largely listed as inhibitors; actives 1.8% (n = 300,000); AID 540276; active = well fitted inhibition curve with a large enough effect; inconclusive = small, poorly fitted or top-dose-only effect, or effect the other way; inactive = flat fitted curve, though single readings scatter; tested in HEK293 cells; about a fifth of its hits are not listed in these tables; also: % is scaled to controls: 0 for no effect and ±100 for the full control effect; luciferase read-out
2A StopGo = lowers the luciferase signal of an FMDV 2A StopGo reporter. human cells with a luciferase reporter of 2A StopGo recoding; control for the full effect not named in the record. Potency, µM (titrated, usually from 57.9 µM), for the others: top-dose signal change, negative = less light. actives 1.2% (n = 410,000). AID 1159524; active = well fitted falling curve with a large enough effect; inconclusive = small, poorly fitted or top-dose-only effect; inactive = no such curve, though single readings can be large or run the other way; tested in HEK293T cells; also: % is scaled to controls: 0 for no effect and ±100 for the full control effect; nearly all actives have a fitted effect of over 45% in size; luciferase light after 4 h
SARS PLpro yeast = blocks SARS-CoV papain-like protease in a yeast assay; S. cerevisiae expressing SARS-CoV PLpro, growth rescue; control for the full effect not named in the record; Potency, µM (highest dose often 32.9 µM), without a hit: top-dose activity, positive = growth rescue; actives 0.19% (n = 330,000); AID 485353; active means well fitted rising curve with a large enough effect; inconclusive means small, poorly fitted or top-dose-only effect; inactive means no such curve, though single readings can be large or run the other way; also: 0% is about no effect; nearly all actives have a fitted effect of over 55% in size; growth read by luminescence after 48 h
Cruzain inh Det = inhibitors of Trypanosoma cruzi cruzain with detergent; P25779; actives 0.43% (n = 200,000); purified cruzain, Z-FR-AMC fluorescence, 0.01% Triton; Potency, µM, for inactives: max response, negative = inhibition, actives largely listed as inhibitors;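 also: plate controls were neutral wells for no effect and buffer without enzyme for full effect; nearly all actives have a fitted effect of over 40% in size; top concentration of the series not given in the record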
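Sodium acetate buffer (100 mM, pH 5.5) containing 5 mM DTT and 0.01% Triton X-100 hosted 1.5 nM cruzain and test compound for 15 min at room temperature. Cleavage of 2 uM Z-FR-AMC was then tracked by fluorescence.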
Lassa entry inh = blocks Lassa virus binding to or entry into cells | actives 1.2% (n = 300,000) | Lassa virus pseudotype entry inhibition, cell reporter; control for the full effect not named in the record | Potency, µM (highest dose often 37.9 µM), without a hit: at the highest dose activity change, negative = inhibition, usual class: inhibitors; active means well fitted inhibition curve with a large enough effect; inconclusive means small, poorly fitted or top-dose-only effect, or effect the other way; inactive means flat fitted curve, though single readings scatter; tested in HEK293 cells; also: % is scaled to controls: 0 for no effect and ±100 for the full control effect; nearly all actives have a fitted effect of over 50% in size; luciferase read-out
An asterisk follows results filed as active; ? = inconclusive; / = no result given; & = joins results of further samples; [ ] = another dose, or the depositor's remark. Unless noted, calls follow the shape of the dose curve; as a rule, active = well fitted curve in the direction sought with a large enough effect; inconclusive = small, poorly fitted or top-dose-only effect, or another doubt; inactive = no such curve, though single readings can be large; an effect the other way counts as inactive or inconclusive. Potency is read from the fitted curve at half-maximal effect.

SMILES	RE007 growth inh	NS1 function inh	Cruzain noTriton	MARV entry inh	2A StopGo	SARS PLpro yeast	Cruzain inh Det	Lassa entry inh
CC(C)Cn1c(N)c(C(=O)CSc2nc3ccccc3n2C)c(=O)n(C)c1=O	11%	-8%	-4%	-4%	-4%	-7%	2.7%	28%[14.3 µM]
O=C(CSc1nc2ccccc2s1)N1c2ccccc2Sc2ccc(Cl)cc21	8%	25%	16µM*	-24%	-8%	-2%	5.5%	3%
CCCCOCCCNC(=O)N[C@@H](CCSC)C(=O)OC	6%	7%	9%	0%	24%	-5%	2.5%	0%
CCN1CCN(Cc2ccc(NC(=O)c3ccc(C)c(NC(=O)N4CCNC4=O)c3)cc2C(F)(F)F)CC1	7%&-3%&3%	2%&-2%	/	/	-21%&-23%&-5%	-8%&-2%	/	/
CCc1nnc(NC(=O)CSCc2cc(=O)c3ccc(C)cc3[nH]2)s1	/	/	9%	/	-4%	/	7.6%	/
CC(=O)Oc1ccc(N(C(C)=O)S(=O)(=O)c2ccc(C)cc2C)c2ccccc12	12%	5%	/	/	5%	-14%	/	/
COc1cc(/C=N/NC(=O)c2ccc3c(c2)OCCO3)c(Br)c(Br)c1O	-5%	7%	/	/	13%	-6%	/	/
COCCNC(=O)c1onc(CSc2cc(C)cc(C)c2)c1C(=O)O	4%	24%	8%	/	-4%	4%	-0.1%	/
CCOC(=O)N(NC(=O)C(O)(c1ccccc1)c1ccccc1)c1ccccc1	6%	6%	-14%	18%	0%	1%	-1.8%	-13%
Cc1ccc(S(=O)(=O)CCSc2cccc(C(=O)O)c2)cc1	14%	14%	/	/	3%	1%	/	/
COc1ccccc1N1CCN(C(=O)NCc2cccc(C(F)(F)F)c2)CC1	0%	-22%	/	5%[46.1 µM]	-11%	-7%	/	0%[46.1 µM]
CCOc1cccc2sc(NC(=O)CC)nc12	18%	-5%	9%	10%	/	5%	5.0%	14%
CC(C)(C)c1nc(CN2CCOCC2)ccc1O	-15%	6%	-6%	-6%	2%	6%	0.2%	2%
CC(C)C[C@H](NC(=O)N1CC(=O)Nc2ccccc21)C(=O)N[C@@H](C(=O)O)c1ccccc1	11%	8%	/	/	-18%	2%	/	/
Cc1ccc(CN(CC(=O)NC2CCCC2)C(=O)c2csnn2)cc1	17%	-1%	/	-3%[46.1 µM]	-7%	0%	/	?
CCOC(=O)c1[nH]c2ccccc2c1NC(=O)c1c(F)cccc1F	/	/	5%	?	-11%	/	2.2%	-20%[46.1 µM]
CC(=O)c1ccc(N2CCN(C(=O)c3ccco3)C(C)C2)c(F)c1 (stereo not given)	-13%	-2%	-3%	29%	-14%	-3%	-0.3%	-11%
COc1ccc(CC(=O)N2CCC(c3ccccc3)C2)cc1 (stereo not given)	0%	-6%	/	5%[46.1 µM]	33%[activator]	0%	/	?
O=C(c1ccc(CSc2nc3ccncc3[nH]2)cc1)N1CCN(c2cccc(Cl)c2)CC1	9%	-6%	-25%	?	?	-6%	-28%	26µM*
CCOCC(=O)NC1CCc2cc(OC)c(OC)c(OC)c2-c2ccc(SC)c(=O)cc21 (stereo not given)	39%	/	/	-17%	-2%	/	/	/
C=CCOc1ccc(CNCCc2ccc(S(N)(=O)=O)cc2)cc1	-4%	/	/	?	-18%	-6%	/	4%[46.1 µM]
COC(=O)Cc1nnc(NC(=O)c2ccccc2)s1	-11%	-5%	-8%	21%	5%	0%	-2.3%	23%
CC[C@H](C)N(C)C(=O)c1cc2ccccc2c(-c2ccccc2Cl)n1	/	/	?	?	-1%	/	-4.2%	/
CCOCCOc1nc(C)cc(C)c1S(=O)(=O)c1ccccc1C	-15%	/	/	-1%[46.1 µM]	16%	-3%	/	4%[46.1 µM]
Cc1ccccc1-c1nnc(NC(=O)CSc2nc3ccccc3s2)s1	-3%	19%	?	?	3%	-28%	-3.8%	2%
Cc1ccccc1N(CC(=O)N/N=C/c1ccc(N(C)C)cc1)C(=O)c1ccccc1	26%	-81%	?	?	30%[activator]	-11%	-11%	?
N#CCCn1cc(C(=O)Nc2ccc([N+](=O)[O-])cc2)c(-c2cc3ccccc3o2)n1	0%	-1%	/	?	-17%	-2%	/	?
CN(C)/C=N/c1nc2nccc(-c3ccccc3)n2n1	7%	/	/	15%[46.1 µM]	-2%	1%	/	19%
CCOC(=O)c1ccc(N=Cc2nc(-c3ccccc3)oc2OC(C)=O)cc1	-16%	-4%	-27%	?	30%	1%	14µM*	-28%
COC(=O)Cn1c(=NC(=O)C(C)(C)C)sc2c(C)cc(C)cc21	7%	0%	-1%	/	?	-1%	-10%	/
CCc1ccc2oc(=O)cc(CN3CCC(C)CC3)c2c1	-4%	1%	-8%	?	-16%	1%	-0.2%	?
C[C@H](NC(=O)Cc1cccc2ccccc12)C(=O)NCc1ccccc1	-15%	/	/	?	1%	2%	/	/
CCN(CC)CCn1c(=S)[nH]c2cc(C(=O)NCc3ccccc3Cl)ccc2c1=O	-1%	-6%	/	/	32%[activator]	4%	/	/
O=C(Nc1ccc(F)cc1)/C(Cl)=C/c1ccccc1	-15%	-10%	/	?	0%	0%	/	-25%
CCOC(=O)N1CCN(C(=O)c2cnn3ccccc23)CC1	13%	9%	2%	/	7%	-1%	-1.5%	/
CCC(=O)N1CCc2cc(Br)cc(S(=O)(=O)CCC(=O)Nc3ccc(CC)cc3)c21	/	/	-6%	-7%[46.1 µM]	-15%	/	2.0%	5%[46.1 µM]
Cc1cccc(C)c1NC(=O)c1cc(S(=O)(=O)N2CCOCC2)cn1C	3%	7%	/	/	0%	-2%	/	/
CCc1nn(CC(=O)N(CC)Cc2ccccc2)c(=O)c2cc3occc3n12	/	/	-5%	3%[46.1 µM]	3%	/	-3.7%	-10%[46.1 µM]
O=C(Nc1ccccc1)Nc1ccncc1	-9%	/	/	-1%[46.1 µM]	29%	0%	/	?
COc1ccc(OC)c(N(CC(=O)Nc2ccc3c(c2)OCO3)S(=O)(=O)c2ccccc2)c1	-3%	9%	-3%	-1%&-1%	23%	2%	-1.6%	-12%
CCOC(=O)c1c(C2COc3ccccc3O2)csc1N (stereo not given)	?	-71%	-6%	-29%	-17%	-33%	-7.0%	1%
Cn1c(CNC(=O)Nc2cccc(Cl)c2)nnc1SCc1ccccc1	5%	-66%	-3%	?	-17%	-8%	-5.4%	0%
CCC(=O)Nc1cccc(NC(=O)c2cccnc2)c1	13%	-57%	0%	-3%[46.1 µM]	25%	-6%	1.0%	-7%
COc1ccc(-c2cc(C(=O)Nc3c(C)nn(Cc4ccccc4C)c3C)no2)cc1	/	/	-8%	-1%[46.1 µM]	-12%	/	-1.2%	-14%[46.1 µM]
CS(=O)c1ccccc1COC(=O)Nc1ccc(Cl)cc1 (stereo not given)	4%	5%	9%	-4%[46.1 µM]	0%	1%	-4.3%	-5%
COc1cc2[nH]c(=O)n(-c3cccc(Cl)c3)c(=O)c2cc1OC	6%	-1%	12%	-7%&-7%	-2%	3%	2.5%	8%
CCOc1ccccc1NC(=O)Cn1cnc2sc(C)c(S(=O)(=O)N3CCC(C)CC3)c2c1=O	/	/	?	5%[46.1 µM]	-30%	/	-0.4%	15%[46.1 µM]
O=C(Nc1ccc(Oc2ccccc2)nc1)C1CCN(Cc2ccccc2)CC1	-2%	-4%	/	/	-3%	-3%	/	/
O=C(Nc1cccc(Cl)c1)c1csnn1	/	/	-5%	3%[46.1 µM]	37%[activator]	/	-6.0%	10%[46.1 µM]
COc1ccc(S(=O)(=O)N2CCc3ccccc32)cc1C(=O)NCc1ccco1	-5%	/	/	-28%	32%[activator]	-2%	/	?
CC(=O)Nc1ccc(Sc2ncccc2C(=O)Nc2ccc(F)cc2)cn1	4%	4%	15%	3%	/	-4%	4.0%	-9%
CCOC(CCNC(=O)CCC(=O)Nc1ccc2nc(N3CCN(C)CC3)cc(C)c2c1)OCC	-15%	-4%	/	-1%[46.1 µM]	19%	0%	/	-5%[46.1 µM]
COc1cc(NC(=O)C2CC(c3cccc(Br)c3)=NO2)cc(OC)c1OC (stereo not given)	8%	-15%	/	?	-19%	1%	/	?
COC(=O)N1N=C(c2ccccc2)CC1(O)C(F)(F)F (stereo not given)	10%	0%	1%	4%	/	3%	-0.7%	9%
CCOC(=O)C(=O)Nc1ccc(OC)c(Cl)c1	-17%	1%	/	17%[46.1 µM]	1%	0%	/	8%
COC(=O)C(O)(NC(=O)c1ccncc1)C(F)(F)F (stereo not given)	6%	1%	/	/	-23%	3%	/	/
CCCCc1nc(NCC2CCCO2)c(C#N)c2c1COC(C)(C)C2 (stereo not given)	-21%	-9%	15%	-13%	-29%	-13%	-2.2%	-29%
CCc1nnc(NC(=O)CN2CCN(C3CCCCC3)CC2)s1	0%	2%	-14%	-12%	/	17%	2.9%	10%
Cc1ccc(CNc2ncnc3onc(-c4ccc(F)cc4)c23)cc1	/	/	2%	/	-23%	/	5.0%	?
CNC(=S)NC1(C)CCS(=O)(=O)C1 (stereo not given)	7%	1%	/	-5%[46.1 µM]	3%	1%	/	13%

Further structures follow.
SMILES	RE007 growth inh	NS1 function inh	Cruzain noTriton	MARV entry inh	2A StopGo	SARS PLpro yeast	Cruzain inh Det	Lassa entry inh
CCc1ccccc1NC(=O)Cn1nc(C)n2cccc2c1=O	-5%	-5%	/	/	-18%	?	/	/
COc1cccc(C(=O)Nc2c(C(N)=O)oc3ccccc23)c1	-2%	-52%	5%	/	-24%	-9%	-3.2%	/
C=CCC1=C/C(=C\c2c(N)n3nc(CC(=O)N4CCOCC4)sc3nc2=O)C=C(OC)C1=O	-19%	6%	/	/	-20%	13%	/	/
COc1ccc2c(c1)CCc1c(C(=O)Nc3cnn(Cc4ccc(Cl)cc4Cl)c3)noc1-2	/	/	-6%	2%[46.1 µM]	-11%	/	-6.4%	-12%[46.1 µM]
Cc1ccccc1OCCn1cc(C(=O)C(=O)N2CCOCC2)c2ccccc21	6%	-2%	/	14%[46.1 µM]	-17%	0%	/	?
COc1ccc(-c2cc(C(=O)Nc3cc(C)nn3-c3ccccc3)no2)cc1OC	-1%	/	3%	24%&24%[46.1 µM]	-23%&-15%	0%	-2.8%	-6%[46.1 µM]

No enrichment for hits; 4.6% or so of the library scored in one or more.
